HPGD block – blocks human HPGD enzyme activity; purified HPGD, NADH fluorescence kinetic, PGE2 substrate; AID 894; P15428; hit rate 4.3% among 150,000; Potency, µM, without a hit: at the highest dose activity change, negative = inhibition, most hits filed as inhibitors; active = well fitted inhibition curve with a large enough effect (not every such curve was filed as active); inconclusive = small, poorly fitted or top-dose-only effect, or another doubt; inactive = no such curve, though single readings can be large or run the other way;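 note: top concentration of the series not given in the record; plate controls included wells without enzyme; inactives centre near -10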
Target sequence (P15428 whole entry, looked up): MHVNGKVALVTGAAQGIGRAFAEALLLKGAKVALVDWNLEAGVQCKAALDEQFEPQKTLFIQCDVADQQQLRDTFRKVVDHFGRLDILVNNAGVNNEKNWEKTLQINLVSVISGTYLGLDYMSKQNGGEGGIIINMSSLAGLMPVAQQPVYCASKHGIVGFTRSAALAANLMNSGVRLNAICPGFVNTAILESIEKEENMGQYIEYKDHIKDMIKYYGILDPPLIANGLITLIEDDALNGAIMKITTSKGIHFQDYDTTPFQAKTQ
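NADH formation kinetics: reaction with 30 uM PGE2 and 1 mM NAD+ (final), 20 nM enzyme, Tris-HCl pH 8 with Tween 20, after 15 min compound preincubation at room temperature. Fluorescence change, last versus first of five reads.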
* = called active by the depositor; ? = inconclusive; & = joins results of further samples. % is set by controls: 0 for no effect and ±100 for the full control effect; potency is the fitted concentration of half-maximal effect.

entry | compound | HPGD block
1 | CCC(=O)O[C@@H]1[C@@H](OC(C)=O)[C@@]2(O)C(C[C@H](O)C2(C)C)[C@](C)(O)[C@H]2CC[C@@H]3[C@@H](O)[C@]12C[C@@]3(C)O (stereo partly specified) | -8.3%
2 | CN1C(=O)NC(=O)[C@]2(Cc3ccccc3N3CCN(c4ccccc4)CC32)C1=O (stereo partly specified) | -12.3%
3 | CC(C)COC(=O)c1ccccc1C(=O)OCC(C)C | -8.7%
4 | C[N+]1(C)C2CCC1CC(OC(=O)C(CO)c1ccccc1)C2 (stereo unspecified) | -8.2%&-6.3%
5 | CCOC(=O)Cn1cc([N+](=O)[O-])nc1[N+](=O)[O-] | -0.7%
6 | CC(C)C12CN3CCN(CC(C3)C1O)C2 (stereo unspecified) | 4.4%
7 | O=C(Cc1ccccc1)N1CCN(C/C=C/c2ccccc2)CC1 | -11.4%
8 | C=C(C)[C@H]1C2C(=O)O[C@H]1[C@H]1OC(=O)[C@@]34O[C@@H]3C[C@]2(O)[C@@]14C | -8.5%
9 | Nc1cc(Cl)cc(C(=O)O)c1Cl | -6.7%
10 | COc1ccc(N2C(=O)CC(N3CC=C(c4ccccc4)CC3)C2=O)cc1 (stereo unspecified) | ?
11 | COCCCn1c(-c2ccc(OC)cc2)cc(C(=O)NC2CCCCCCC2)c1C | -20.7%
12 | O=c1[nH]c(=O)n(-c2cccc(Cl)c2)c(O)c1C=NCCN1CCCCC1 | -10.3%
13 | O=S(=O)(O)c1cc(O)ccc1O | ?
14 | CC(C(=O)N1CCC2(CC1)OCCO2)C1Sc2ccccc2NC1=O (stereo unspecified) | 1.1%
15 | CCc1c(C)c2ccc(OCC(N)=O)cc2oc1=O | ?
16 | CN(C)C=C1C(=O)N(C2CCCCC2)C(=O)N(C2CCCCC2)C1=O | -8.4%
17 | CN1c2ccc([N+](=O)[O-])cc2CC2(C(=O)NC(=O)N(c3ccccc3)C2=O)C1c1ccccc1 (stereo unspecified) | -9.2%
18 | OCCCCO | -8.5%
19 | c1ccc2c(c1)CCNC2 | -5.9%
20 | COc1cc(C(=O)Nc2ccc(Br)cc2C(=O)c2ccccc2)cc(OC)c1OC | -1.9%

Molecules from the list above that have nitrogen in an aromatic ring (three):
entry | compound | HPGD block
5 | CCOC(=O)Cn1cc([N+](=O)[O-])nc1[N+](=O)[O-] | -0.7%
11 | COCCCn1c(-c2ccc(OC)cc2)cc(C(=O)NC2CCCCCCC2)c1C | -20.7%
12 | O=c1[nH]c(=O)n(-c2cccc(Cl)c2)c(O)c1C=NCCN1CCCCC1 | -10.3%

Later entries.
entry | compound | HPGD block
21 | CCC(=Nc1ccc(OC)cc1OC)c1c(O)n(C2CCCCC2)c(=O)[nH]c1=O | 28.2µM*
22 | CN1C(=O)C(Cc2ccc3c(c2)OCO3)C(=O)N(C)C1=O | -15.3%
23 | c1cncc(C2CCCCN2Cc2ccc3c(c2)OCO3)c1 (stereo unspecified) | -5.0%
24 | Cn1cnc(CCN)c1 | -27.6%
25 | N#Cc1ccc(N2CCNCC2)c(F)c1 | -1.5%
26 | c1ccc(N2CCCC3(CCNCC3)C2)nc1 | -29.3%
27 | O=c1[nH]c(=O)n(Cc2ccco2)c(O)c1C=NC1CC1 | -25.0%
28 | CC(C)c1c(CN(C)[C@@H](C)Cc2ccccc2)n(C)n(-c2ccccc2)c1=O | 1.0%
29 | O=c1cccc2n1CC1CC2CN(C(c2cccc(F)c2)c2sc3ncnn3c2O)C1 (stereo unspecified) | -3.0%
30 | Clc1ccc([C@@H]2C[C@H]3CC[C@@H]2N3)cn1 | 0.2%
31 | Cc1cc(C)c(C(=O)CN2CCOCC2)c(C)c1 | -9.7%
32 | COc1cc2[nH]c(=O)n(-c3ccc(C)cc3)c(=O)c2cc1OC | ?
33 | NCCc1cc(O)c(O)cc1O | -16.1%
34 | CCOP(=S)(OCC)SCn1c(=O)oc2cc(Cl)ccc21 | ?
35 | CCOc1ccc(Br)c(C2(O)CC(C)N(C)CC2C)c1 (stereo unspecified) | -9.1%
36 | CCCCC[C@@H](/C=C/C=C\CCCCCCCC(=O)O)OO | 0.3%
37 | Cc1nn(Cc2ccccc2)c(Cl)c1C(=O)NC1CCCc2ccccc21 (stereo unspecified) | -21.6%
38 | COc1ccccc1N(CC(=O)NC1CCCC1)C(=O)c1cnn(C(C)C)c1 | -15.5%
39 | O=C1/C(=C/c2ccc3c(c2)OCO3)N2CCC1CC2 | ?
40 | CCn1c(=O)cc(OCC(=O)N2CCN(Cc3ccc4c(c3)OCO4)CC2)c2ccccc21 | -4.7%
41 | O=C(CN1CC(c2ccccc2)CC1=O)Nc1ccc(F)cc1 (stereo unspecified) | -10.8%
42 | CCc1ccc(/C=C(/C#N)C(N)=S)cc1 | 31.6µM*
43 | CCOC(=O)CC(SP(=S)(OC)OC)C(=O)OCC (stereo unspecified) | -10.2%
44 | CSc1nnc([C@@H](N)Cc2ccccc2)o1 | -4.8%
45 | O=C(CCCOc1ccc(Cl)cc1Cl)N1CCC2(CC1)OCCO2 | -25.9%
46 | c1cncc(C2CCCCN2)c1 (stereo unspecified) | -17.8%
47 | Cc1nn(Cc2ccccc2Cl)c(C)c1C(=O)NC1CCCc2ccccc21 (stereo unspecified) | -7.0%
48 | CCOP(=O)(OCC)C1(O)C(=O)Nc2ccccc21 (stereo unspecified) | -3.4%
49 | Cc1ccc(S(=O)(=O)CC(C)(O)C(=O)Nc2cccc(C(F)(F)F)c2)cc1 (stereo unspecified) | -3.3%
50 | CSCC[C@@H](N)P(C)(=O)O | -1.7%
51 | Cn1c(O)c(C=NCCN2CCN(C(=O)c3ccccc3)CC2)c(=O)n(C)c1=O | -14.6%
52 | CCCCCCCCn1sccc1=O | ?
53 | Cc1ccc(OP(=O)(NCc2ccccc2)Oc2ccc(C)cc2)cc1 | -7.2%
54 | CC1OC(C)OC(C)O1 (stereo unspecified) | -9.2%
55 | CC(C)(C)[C@]1(O)C[C@@H]2OC(=O)C[C@@]23C(=O)O[C@@H]2OC(=O)[C@H](O)[C@]213 | -3.7%&-1.3%
56 | c1cc2c(cc1[C@H]1OC[C@@H]3[C@H]1CO[C@H]3c1ccc3c(c1)OCO3)OCO2 | -20.9%
57 | C=CCn1c(=O)c(C=Nc2cccc([N+](=O)[O-])c2)c(O)n(CCCC)c1=O | -4.8%
58 | COC(=O)C1(O)CC2OC1(C)n1c3ccccc3c3c4c(c5c6ccccc6n2c5c31)C(=O)NC4 (stereo unspecified) | -15.6%
59 | Oc1cc(Cl)cc(Cl)c1Cl | ?
60 | CN1CCN(S(=O)(=O)c2cnc(Cl)c(Br)c2)CC1 | -2.4%
61 | CN(C)c1ccc(N=O)cc1 | -14.5%
62 | O=c1[nH]c(=O)n(Cc2ccccc2)c(O)c1C=NCCN1CCOCC1 | 31.6µM*
63 | CC(C)CCn1c(N)c(C(=O)OCC2CCCO2)c2nc3ccccc3nc21 (stereo unspecified) | ?
64 | CNCCc1c(C)n[nH]c1C | -2.1%
65 | Cc1ccc(S(=O)(=O)N2CCCCC2)cc1NC(=O)CN1CC=C(c2ccccc2)CC1 | -4.7%
66 | CSCCC(N=Cc1c(O)n(-c2ccc(F)cc2)c(=O)[nH]c1=O)C(=O)OC(C)(C)C (stereo unspecified) | -10.1%
67 | CCCCC/C=C\C/C=C\C/C=C\C/C=C\CCCC(=O)NCCCC(=O)O | -14.3%&-0.4%
68 | CCOC(=O)C(O)(c1cn(C)c2ccccc12)C(F)(F)F (stereo unspecified) | -7.1%
69 | C[C@@]12CC[C@H]3[C@@H](CC[C@H]4C[C@@H](O)CC[C@]43C)[C@H]1CC[C@@H]2C(=O)C[C@H](O)C(F)(F)F | -13.2%
70 | CC(C)(O)C1C2OC(=O)C1[C@]1(O)C[C@H]3O[C@]34C(=O)O[C@H]2[C@]14C (stereo partly specified) (tested in a mixture with another compound) | 4.8%

(list continues)
entry | compound | HPGD block
71 | CCOC(=O)[C@@]1(C#N)[C@@H]2C=CC(C(N)=O)=CN2[C@@H](C(N)=O)[C@@H]1c1cccc(Cl)c1 | -15.8%
72 | O=C(O)c1cccc2c1NC(C(=O)O)C1CC(Sc3ccccc3[N+](=O)[O-])C(Cl)C21 (stereo unspecified) | ?
73 | O=C(Cc1ccc(Cl)c(Cl)c1)N1CCCC[C@H]1CN1CCCC1 | -7.6%
74 | COC(=O)c1c(C)ccc2c(O)c3c(cc12)C(=O)c1c2c(cc(O)c1C3=O)[C@@]1(C)O[C@@](C)(O2)[C@@H](O)[C@H](N(C)C)[C@H]1O | ?
75 | C#C[C@@]1(O)CC[C@@H]2[C@@H]3CCC4=CC(=O)CC[C@@]4(C)[C@H]3CC[C@]21C | -2.3%
76 | COc1ccc(S(=O)(=O)Cc2ccc(C(=O)N3CCC4(CC3)OCCO4)o2)cc1 | -3.0%
77 | COC(=O)CC1(CC(=O)OC)C(=O)NC(=O)NC1=O | -22.3%
78 | Cc1n[nH]c(C)c1CCN | 1.9%
79 | CCOP(=O)(OCC)C(CC)N1CCOCC1 (stereo unspecified) | -1.1%
80 | Fc1ccc(NC2=NCCS2)cc1Cl | 12.6µM*
81 | CC1CC[C@]2(NC1)OC1CC3C4CC=C5CC(O)CC[C@@]5(C)C4CC[C@]3(C)C1C2C (stereo partly specified) | -5.3%
82 | Clc1cccc(Cl)c1CN1CCN(c2ccccc2)CC1 | -4.7%
83 | CCc1c(C)nc(N)nc1N1N=C1SC | -2.3%
84 | CC(C)(c1ccccc1)c1ccc(O)cc1 | -11.1%
85 | CCC(CC)C1C(C#N)=C(N)Oc2c1c(=O)oc1ccccc21 (stereo unspecified) | -25.9%
86 | C=CC[C@]1(O)CCC2C3CCC4=CCCCC4C3CCC21C (stereo partly specified) | -9.6%
87 | Cc1ccc(-n2c(O)c(C=Nc3ccc(S(=O)(=O)N(C)C)cc3)c(=O)[nH]c2=O)cc1 | -13.9%
88 | C[C@@]12CC[C@H](O[C@@H]3O[C@H](CO)[C@@H](O)[C@H](O)[C@@H]3O)C[C@@H]1CC[C@H]1[C@H]2CC[C@@]2(C)[C@@H](C3=CCOC3=O)CC[C@]12O | 1.4%
89 | CC(C)NCC(O)c1ccc(C2CCCC2)cc1 (stereo unspecified) | -1.4%
90 | Cc1sc2ncn(CC(=O)NCC(=O)N3CCC4(CC3)OCCO4)c(=O)c2c1C | -5.5%
91 | O/N=C1/C(=C\c2ccccc2)N2CCC1CC2 | -15.8%
92 | COc1c(C(C)(C)C)cc([N+](=O)[O-])c(C)c1[N+](=O)[O-] | -7.7%
93 | O=P(CN1CCN(c2ccccc2)CC1)(N1CCCCC1)N1CCCCC1 | -0.5%
94 | FC(F)(F)c1nc2ccc(SSc3ccc4nc(C(F)(F)F)[nH]c4c3)cc2[nH]1 | 3.98µM*
95 | Nc1c(Br)cc([N+](=O)[O-])cc1[N+](=O)[O-] | -1.9%
96 | Cc1cc(OC(=O)CCCNC(=O)OC(C)(C)C)c2c3c(c(=O)oc2c1)CCC3 | -12.0%
97 | CCOC(=O)C(NC(=O)CC)(Nc1ccc(C(O)(C(=O)OCC)C(F)(F)F)cc1C)C(F)(F)F (stereo unspecified) | -0.7%
98 | C[N+]12CCC(CC1)C(C(O)(c1ccccc1)c1cccs1)C2 (stereo unspecified) | -2.4%
99 | COc1ccc(CCNC(C)CCc2ccc(OC)cc2)cc1 (stereo unspecified) | 5.2%
100 | CCCCn1c(NS(=O)(=O)c2ccc(C)cc2)c(C(=O)OCC)c2nc3ccccc3nc21 | ?
101 | CCCCOC(=O)COc1cc(C)cc2oc(=O)c3c(c12)CCC3 | -21.9%
102 | O=C(O)C1C2CCC(O2)C1C(=O)NC1CCCCC1 (stereo unspecified) | 0.9%
103 | CN(Cc1ccccc1)C(=O)Cn1c(=O)oc2cc(S(=O)(=O)NCc3ccccc3)ccc21 | ?
104 | C=CC#N | -3.5%
105 | O=C(c1cc(-c2ccccc2)nc2ccccc12)N1CCC2(CC1)OCCO2 | -10.7%
106 | NC(=O)c1cc(N2CC2)c([N+](=O)[O-])cc1[N+](=O)[O-] | -18.4%
107 | CCOP(=O)(CN(CC)CCNP(=O)(OCC)OCC)OCC | 0.8%
108 | C=C(C)[C@H]1CN[C@H](C(=O)O)[C@@H]1CC(=O)O | 8.6%
109 | CCNc1nc(Cl)nc(NCC)n1 | -8.1%
110 | COC(=O)C(O)(c1ccc(N(C)C(=O)COc2ccccc2)cc1)C(F)(F)F (stereo unspecified) | 0.1%
111 | CCOC(=O)c1cncn1[C@H](C)c1ccccc1 | -1.4%
112 | C=CCn1c(O)c(C=NCCN2CCNCC2)c(=O)[nH]c1=O | -12.2%
113 | O=C(c1cc2ccccc2oc1=O)N1CCC2(CC1)OCCO2 | -16.7%
114 | O=[As](O)(O)c1ccc(N=Nc2ccc([As](=O)(O)O)cc2)cc1 | -4.5%
115 | CC(C)OCCCNC(=O)c1c(N)n(Cc2cccs2)c2nc3ccccc3nc12 | ?
116 | CCC(C#N)(CC)P(=S)(c1ccccc1)c1ccccc1 | -9.5%
117 | O=c1c2ccccc2nc(-c2ccoc2)n1-c1ccccc1 | -11.7%
118 | O=C(N[C@H]1CN2CCC1CC2)c1ccc(Cl)cc1 | -4.6%
119 | COc1ccc(CC2C(=O)N(C)C(=O)N(C)C2=O)c(OC)c1 | -4.1%
120 | O=C(O)/C=C\CO | 1.1%

Remaining list, next part
entry | compound | HPGD block
121 | CC(C)OC(=O)c1c(N)n(CC2CCCO2)c2nc3ccccc3nc12 (stereo unspecified) | ?
122 | O=c1c2ccccc2nc(N2CCCC2)n1-c1ccccc1 | -29.4%
123 | CC1(C)CC(n2[nH]c(=O)c3c2NC(=O)CSC3c2ccc(F)cc2)CCO1 (stereo unspecified) | -1.2%
124 | CCOP(=O)(OCC)C(NC(C)=O)C(Cl)(Cl)Cl (stereo unspecified) | -11.7%
125 | Cn1c(=O)cc(OCC(=O)N2CCN(Cc3ccc4c(c3)OCO4)CC2)c2ccccc21 | -16.1%
126 | C(#CCN1CCOCC1)COC/C=C/c1ccccc1 | -10.1%
127 | CO[C@@H](C)[C@](O)(C(=O)OCC1=CCN2CC[C@@H](O)[C@H]12)C(C)C | 5.0%
128 | CCN(CC)S(=O)(=O)c1ccc(C)c(NCC(=O)Nc2ccc(C#N)c(Cl)c2)c1 | -9.2%

From PubChem BioAssay

Only part of the results is shown (hit frequency here may not be typical).
